P. yoelii liver – Plasmodium liver-stage growth inhibition, dose response, imaging, Malaria Box, P. yoelii, HepG2-A16-CD81EGFP (AID 602156) | P. yoelii liver stage in HepG2-A16-CD81EGFP, imaging; first-round cut-off not given here | calls after a first round at 10 µM; hits with a dose series show IC50 in µM | actives 4.8% (n = 5,700); in the data active = a potency from the dose series;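 also: infected cells exposed to compound for 48 hours before fixation; stained parasite area by imaging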
Starred values were filed as active, the others as inactive; i = inactive. These rows are one share of the data. The share of hits here may be higher or lower than overall.

SMILES	P. yoelii liver
CN(C)CC(C)(C)CNCc1cc(-c2ccnc3cc(Cl)ccc23)ccc1O	i
CCN(Cc1ccccc1)Cc1c(O)ccc2oc(C)c(C(=O)Nc3ccc(C)cc3C)c12	i
CCN(CC)c1cc(-c2ccccn2)nc(-c2ccccn2)n1	i
CCOc1ccc2[nH]c(C)c(CN(C)Cc3ccccc3)c(=O)c2c1	i
CCN(CC)CCN(Cc1cc2cc(OC)ccc2[nH]c1=O)C(=S)Nc1ccc(F)cc1	i
c1ccc(-c2nn(-c3ccccc3)[n+](-c3ccccc3)n2)cc1	0.107µM*
CC(=NO)c1ccc(NC2=C(N3CCCCC3)C(=O)c3ccccc3C2=O)cc1	i
COc1cc(/C=C(\C#N)c2nc3ccccc3[nH]2)ccc1OCc1ccc(C)cc1	i
O=C(CSc1nc2ccccc2[nH]1)Nc1ccc2c(c1)OCO2	i
CCOC(=O)C1=C(C)NC2=C(C(=O)C(C(=O)OCC)C(c3ccc(OC)cc3)C2)C1c1ccc([N+](=O)[O-])cc1 (centres undefined)	i
CCN(CC)c1ccc(NC(=O)C2Cc3ccccc3CN2S(=O)(=O)c2ccc(F)cc2)cc1 (centres undefined)	i
CCCOC(=O)C1=C(C)NC2=C(C(=O)CCC2)C1c1cc(Br)c(O)c(OCC)c1 (centres undefined)	i
CCn1c(SCC(=O)Nc2cccc(C)c2)nnc1-c1ccccc1	i
Cn1c(COc2ccc(Cl)cc2Cl)[n+](C)c2ccccc21	i
O=C(CCl)NCCCCNc1ccnc2cc(Cl)ccc12	i
CCNc1ncnc2sc(C(=O)NCc3csc(C)n3)c(C)c12	i
CCN1CCN(Cc2c(O)ccc3c(=O)c(Oc4ccccc4Br)c(C(F)(F)F)oc23)CC1	i
Oc1ccc(-c2cncc(NCc3ccc4c(c3)OCO4)c2)cc1	i
COc1cccc(NC(=O)C2C3C=CC4(O3)C2C(=O)N(CC2COc3ccccc3O2)C4C(=O)NC2CCCCC2)c1 (centres undefined)	i
CCOc1cc(Br)cc(C=C2NC(=S)NC2=O)c1O	i
CCOc1ccc(Br)cc1/C=C1\SC(=Nc2ccccc2CC)N(c2ccccc2CC)C1=O	i
CC(C)(C)C(=O)Cn1ccc(=N)c2ccccc21	i
CCOC(=O)c1cnc2ccccc2c1NCCCN(C)C	i
CCCCCCN(C(=O)c1cccc(OC)c1)C(CC)c1nc2ccccc2c(=O)n1-c1ccc(Cl)cc1C (centres undefined)	i
O=C(Nc1ccc(-c2nc3ccccc3[nH]2)cc1)c1ccc(-c2ccc(Cl)cc2)o1	6.65µM*

The closing four records of the part before come first, to join the parts.
SMILES	P. yoelii liver
CC(C)(C)C(=O)Cn1ccc(=N)c2ccccc21	i
CCOC(=O)c1cnc2ccccc2c1NCCCN(C)C	i
CCCCCCN(C(=O)c1cccc(OC)c1)C(CC)c1nc2ccccc2c(=O)n1-c1ccc(Cl)cc1C (centres undefined)	i
O=C(Nc1ccc(-c2nc3ccccc3[nH]2)cc1)c1ccc(-c2ccc(Cl)cc2)o1	6.65µM*
CSc1nnc(CCNC(=O)c2c(-c3ccccc3)noc2C)n1-c1ccc(F)cc1	i
COc1ccc(NC(=O)NCc2cccn2Cc2ccc(F)cc2)cc1OC	i
CCN1C(=O)c2ccccc2Sc2ccc(NC(=O)NCCCOC(C)C)cc21	i
COc1cc(CN2CCN(c3ccccn3)CC2)cc(I)c1O	i
CCOc1ccc2nc3ccc([N+](=O)[O-])cc3c(NC)c2c1	i
O=C1CSc2ccccc2N1	i
COc1cc2c(cc1/C=C(/C#N)c1cccc(C)c1)OCO2	i
COc1ccc(-c2cc(C(F)(F)F)n3ncc(C(=O)NCc4ccccc4)c3n2)cc1	i
CCOC(=O)NC(=O)N1CCC(c2nc(-c3cc(C(C)(C)C)c(O)c(C(C)(C)C)c3)cs2)CC1	i
N#Cc1ccc(NC(=O)CCCC(=O)O)cc1	i
COc1ccc(C2C(C(=O)Nc3ccc(OC)c(OC)c3)CCC(=O)N2c2ccc(OC)cc2)cc1 (centres undefined)	i
COc1cc2nc(NCC3CCCO3)n3nc(-c4ccccc4)nc3c2cc1OC (centres undefined)	i
CCN(CC)Cc1cc2ccc(C)cc2n(CC(=O)OC)c1=O	i
CCc1ccc(C(=O)N2CCCn3cccc3C2c2ccc(C(C)(C)C)cc2)cc1 (centres undefined)	i
CCc1ccc(C(=O)Oc2ccccc2-c2nc3ccccn3c2NC(C)(C)CC(C)(C)C)cc1	i
COc1ccc(-c2nc(NC(=O)CS(=O)(=O)c3ccccc3)sc2C)cc1	i
CC(NC(=O)c1cnn2c(C(F)(F)F)cc(-c3ccc(Br)cc3)nc12)c1ccccc1 (centres undefined)	i
COC(=O)C1=C(O)C(=Cc2cc(C)n(-c3cc(Cl)ccc3Cl)c2C)N=C1C	i
Clc1ccc2[nH]c3c(NCCCN4CCOCC4)ncnc3c2c1	i
BrC(Br)(Br)c1ncc(-c2ccccc2)cn1	i
COc1ccc(Nc2nc(NN=Cc3cc([N+](=O)[O-])ccc3OC)nc(Nc3ccc([N+](=O)[O-])cc3)n2)cc1	i
Cc1ccc2cc3c(N)c4cccc(C)c4nc3nc2c1	i
COc1cccc(-c2ccc(O)c(CNCCc3cccc(F)c3)c2)n1	i
CC1(c2ccccc2)CC(c2ccccc2)=Nc2nonc2N1 (centres undefined)	i
CC1(C)C=C(C23C=CC(C2)C2C(=C4CC(C)(C)NC(C)(C)C4)C=CC23)CC(C)(C)N1 (centres undefined)	i

New compounds follow.
SMILES	P. yoelii liver
CCOC(=O)C(=O)N1c2ccc(OCC)cc2-c2c(ssc2=S)C1(C)C	i
CCCCCCCC(O)(c1ccc(OCC)cc1)C(CN1CCCCC1)c1ccccc1 (centres undefined)	i
Cc1c2oc3c(C)ccc(C(=O)NC4C(=O)N[C@@H](C(C)C)C(=O)N5CCCC5C(=O)N(C)CC(=O)N(C)C(C(C)C)C(=O)OC4C)c3nc-2c(C(=O)NC2C(=O)N[C@H](C(C)C)C(=O)N3CCCC3C(=O)N(C)CC(=O)N(C)C(C(C)C)C(=O)OC2C)c(N)c1=O (some centres undefined)	i
COc1ccc(CNC(=O)C2CNCC2c2ccc(C(F)(F)F)cc2)cc1 (centres undefined)	i
O=c1c2sccc2nc(SCc2cc(=O)n3ccccc3n2)n1Cc1ccccc1	i
Brc1ccc(-c2c[n+]3c(n2Cc2ccccc2)SCCC3)cc1	i
CN1CCN(C(=O)c2cccc(-c3nc(-c4ccncc4)cnc3N)c2)CC1	i
Cn1c2c([n+](C)c1CCl)C(=O)c1ccccc1C2=O	i
CN1C=CC=C/C1=C\C=C1\C=Nc2ccccc21	i
Nc1nonc1-n1nnc(C(=O)NN=Cc2ccc(F)c(Br)c2)c1-c1ccc([N+](=O)[O-])cc1	i
Cc1ccc(NC(=O)C2CSC(c3cccc(F)c3)N2C(=O)c2ccc(C(C)(C)C)cc2)cc1 (centres undefined)	i
COC(CNC(=O)c1c[nH]c2ccc(S(=O)(=O)N3CCN(C)CC3)cc2c1=O)OC	i
CCCCCCCn1c2c(c(=N)c3c1CCC3)CCCC2	i
O=C(NCCCCNc1ccnc2cc(Cl)ccc12)c1cccc(Br)c1	i
Cc1cccc(C(=O)NCc2n[nH]c(=S)n2-c2cccc(C(F)(F)F)c2)c1	i
Cn1ccnc1C(=O)NNc1ncc(C(F)(F)F)cc1Cl	i
Cc1ccc(S(=O)(=O)Nc2ccc(C(=O)NCCC(C)C)cc2)cc1	i
COc1cccc2c(C)nc(N=C(N)N)nc12	i
O=C1Nc2ccccc2C1=Nc1ccccc1NS(=O)(=O)c1ccc2ccccc2c1	i
COc1cc(OC)nc(C(Sc2ccc(NC(=O)c3cccs3)cc2)c2ccccc2)n1 (centres undefined)	i
CCC(C)OC(=O)C1=C(C)NC2=C(C(=O)CC(c3ccc(Cl)cc3)C2)C1c1cccc(O)c1 (centres undefined)	i
CCOC(=O)C1=C(C)NC2=C(C(=O)C(C(=O)OCC)C(c3ccccc3OC)C2)C1c1sccc1C (centres undefined)	i
CN(C)c1ccc(/C=C2\SC(=Nc3ccc(O)cc3)NC2=O)cc1	i
N#Cc1ccc(N2CCN(C(=O)c3ccc(F)cc3Cl)CC2)cc1	i
COC(=O)c1ccc(N2C(=O)C3C(C2=O)C2(c4ccccc4)C(=O)C3(c3ccccc3)C(c3ccc(OC)cc3)=C2c2ccc(OC)cc2)cc1 (centres undefined)	i

Random excerpt: 7 compounds from above.
SMILES	P. yoelii liver
CCCCCCCn1c2c(c(=N)c3c1CCC3)CCCC2	i
Cn1ccnc1C(=O)NNc1ncc(C(F)(F)F)cc1Cl	i
O=c1c2sccc2nc(SCc2cc(=O)n3ccccc3n2)n1Cc1ccccc1	i
COC(CNC(=O)c1c[nH]c2ccc(S(=O)(=O)N3CCN(C)CC3)cc2c1=O)OC	i
COC(=O)c1ccc(N2C(=O)C3C(C2=O)C2(c4ccccc4)C(=O)C3(c3ccccc3)C(c3ccc(OC)cc3)=C2c2ccc(OC)cc2)cc1 (centres undefined)	i
CN(C)c1ccc(/C=C2\SC(=Nc3ccc(O)cc3)NC2=O)cc1	i
Cc1ccc(NC(=O)C2CSC(c3cccc(F)c3)N2C(=O)c2ccc(C(C)(C)C)cc2)cc1 (centres undefined)	i

Back to the main list; the 4 compounds before the break are reprinted first.
SMILES	P. yoelii liver
CCOC(=O)C1=C(C)NC2=C(C(=O)C(C(=O)OCC)C(c3ccccc3OC)C2)C1c1sccc1C (centres undefined)	i
CN(C)c1ccc(/C=C2\SC(=Nc3ccc(O)cc3)NC2=O)cc1	i
N#Cc1ccc(N2CCN(C(=O)c3ccc(F)cc3Cl)CC2)cc1	i
COC(=O)c1ccc(N2C(=O)C3C(C2=O)C2(c4ccccc4)C(=O)C3(c3ccccc3)C(c3ccc(OC)cc3)=C2c2ccc(OC)cc2)cc1 (centres undefined)	i
Clc1ccc2c(NC3CCCCCCC3)ccnc2c1	i
Cc1nc2c(C)c(-c3ccccc3)[nH]n2c(=O)c1C	i
Cc1ccc(C2CC(=O)C3=C(C2)Nc2ccccc2N(C(=O)C(F)(F)F)C3c2ccc(OCc3ccccc3)cc2)cc1 (centres undefined)	i
COc1cccc(NCC(O)Cn2c3ccc(Cl)cc3c3cc(Cl)ccc32)c1 (centres undefined)	i
O=C(CCC1CCCC1)NC1CCC(Nc2ccnc3cc(Cl)ccc23)CC1 (centres undefined)	i
Oc1ccc(-c2ccccc2)cc1CN1CCCCCC1	i
CC(=O)OC1C(NC(=O)c2cc([N+](=O)[O-])c(N(C)C)c([N+](=O)[O-])c2)OC(C(=O)N2CCOCC2)C(OC(C)=O)C1OC(C)=O (centres undefined)	i
CCOc1ccc(C(=O)C(C)[n+]2cc(-c3ccc(Cl)cc3)n3c2CCC3)cc1 (centres undefined)	i
CC(C)CNc1nc(NCCCN2CCCCC2C)ncc1C(=O)NCc1ccccc1 (centres undefined)	i
Cc1cc(=O)oc2c1ccc1oc(C(=O)c3ccccc3)c(C)c12	i
C=CCN1Cc2ccc(C(=O)NCc3ccccc3)cc2N=C1c1ccc(F)cc1	i
COCCOC(=O)C1=C(C)NC2=C(C(=O)CC(c3ccc(OC)cc3)C2)C1c1ccc(F)cc1 (centres undefined)	i
CON(C)C(=O)c1cccc2ccccc12	i
CC1(C)O[C@@H]2OC([C@@H](O)CNc3ccc([N+](=O)[O-])cc3[N+](=O)[O-])C(O)[C@@H]2O1 (some centres undefined)	i
CCCCOc1ccc(C(=O)Nc2c3c(nn2-c2ccc(C)cc2C)CSC3)cc1	i
O=c1[nH]c(-c2ccccn2)nc(C(F)(F)F)c1Br	i
O=C(CSc1nc2cc3c(cc2c(=O)n1Cc1ccco1)OCO3)Nc1cc(C(F)(F)F)ccc1Cl	i
Cc1nn(C(=O)NS(=O)(=O)c2ccccc2Cl)c(C)c1C	i
Cc1ccccc1Cn1c(=N)n(CC(O)c2ccc(Cl)c(Cl)c2)c2ccccc21 (centres undefined)	i
CNc1nc(NN=Cc2cc([N+](=O)[O-])ccc2O)nc(Nc2cccc(C(F)(F)F)c2)n1	i
CCN(CC)CCCNC(=S)N(Cc1ccccc1)Cc1cc2cc(C)c(Cl)cc2[nH]c1=O	i
Nc1c(C(=O)Nc2ccc(F)cc2)sc2nc3c(c(-c4cccs4)c12)CCCCC3	i
FC(F)(F)c1cnc(Sc2nnc(-c3ccncc3)o2)c(Cl)c1	i
COc1ccc2ccccc2c1C1CC(=O)N2CN(Cc3ccco3)CSC2=C1C#N (centres undefined)	i
CC(=O)OC(OC(C)=O)C12C=CC(O1)C1C(=O)N(c3cccc(C)c3)C(=O)C12 (centres undefined)	i

Next structures
SMILES	P. yoelii liver
Cc1cc(Nc2cc3ccccc3cc2O)n2ncnc2n1	i
CC1CC(C)(C)NC(=S)N1CCC(=O)NCCc1ccccc1 (centres undefined)	i
Cc1nc(N=C(N)N)nc2ccccc12	i
CN(CCCNc1ccc(C(=O)Nc2ccc(C(F)(F)F)cc2)cc1[N+](=O)[O-])Cc1ccccc1	i
CC(O)c1ccc(NC(=O)c2cnn3c2NC(c2ccco2)CC3C(F)(F)F)cc1 (centres undefined)	i
O=C1C2C(C(=O)N1c1ccc(Br)cc1)C1C=CC2C12CC2 (centres undefined)	i
CC(=O)N(C1=C(N2CCOCC2)C(=O)c2ccccc2C1=O)c1cc(C)cc(C)c1	i
COc1ccc(S(=O)(=O)N=C2C=C(Nc3ccc(O)cc3)C(=O)c3ccccc32)cc1	i
CO[C@H]1C[C@H](C)Cc2cc(O)cc(c2)NC(=O)C(C)=CCC[C@H](OC)[C@@H](OC(N)=O)C(C)=CC(C)[C@H]1O (some centres undefined)	i
CC(C)NC(=O)c1ccc(OC2CCN(CC3CCCCC3)CC2)c(Cl)c1	i
Cc1ccn(C(=O)NCCNC(=O)Nc2ccc(Cc3ccc(NC(=O)NCCNC(=O)n4ccc(C)n4)cc3)cc2)n1	i
CC(CCCNCCO)Nc1ccnc2cc(Cl)ccc12 (centres undefined)	i
CCc1ccc(C(=O)N(CC(=O)Nc2cc(C(C)(C)C)nn2-c2ccc(Cl)c(Cl)c2)C(C)C)cc1	i
COCCn1nnnc1C(c1cc2cc3c(cc2[nH]c1=O)OCCO3)N1CCC(O)CC1 (centres undefined)	i
Cc1cc(C)c(S(=O)(=O)NCc2ccc(Cl)cc2)c(C)c1	i

Screening results as filed in PubChem.
